UCH37 DUB inh: human UCH37 deubiquitinating enzyme inhibition | purified proteasome/UCH37, Ub-AMC cleavage fluorescence | inhibition, % (concentration not given with the values) | Q9Y5K5 | 0.33% of 330,000 active | AID 588478;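 active = mean of two replicates above 20%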;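 note: 0% = compound-free wells with enzyme and 100% = wells lacking proteasome; stock transfer was 100 nL into about 20 µL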
Target sequence (Q9Y5K5 whole entry, looked up): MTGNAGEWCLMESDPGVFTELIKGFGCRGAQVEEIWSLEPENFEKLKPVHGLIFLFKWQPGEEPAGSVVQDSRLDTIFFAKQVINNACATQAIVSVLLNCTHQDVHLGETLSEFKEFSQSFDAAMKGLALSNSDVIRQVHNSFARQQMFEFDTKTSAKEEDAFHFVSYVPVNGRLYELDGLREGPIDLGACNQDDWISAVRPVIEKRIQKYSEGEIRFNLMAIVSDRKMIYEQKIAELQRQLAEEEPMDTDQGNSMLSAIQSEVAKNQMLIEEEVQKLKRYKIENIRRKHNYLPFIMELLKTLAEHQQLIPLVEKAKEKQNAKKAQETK
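System: Proteasome-associated human UCH37 deubiquitinase; Input: 0.15 nM proteasome in added enzyme buffer; Also added: Ub-AMC substrate from 1 µM stock; Incubation: 30 min compound-proteasome preincubation then 25 min substrate reaction, room temperature; Detection: fluorescence, ex 355 nm, em 460 nm; Read-out: % inhibition of Ub-AMC cleavage fluorescence; Benchmarks: no-proteasome and no-compound wells.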
rRNA inh HTS: selective bacterial rRNA inhibition in E. coli; E. coli WT GFP vs humanized-ribosome RFP mutants, fluorescence, 24 h; stronger effect = lower value; DMSO median 0, no signal -100; GFP signal change (wild-type ribosome), % (no concentration beside the values); 1.6% of 350,000 active; AID 720706;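 active = significant combined selectivity score with lowered wild-type GFP, culture density cut under 30%, mutant RFP and density less affected; inactive = any of these conditions unmet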; note: one replicate is shown; some compounds called inactive have numbers as strong as hits
HNF4A DNA FP: change in binding of human HNF4 alpha to DNA. P41235. HNF4a-FITC DNA binding, fluorescence polarization, 1 h. activity change, % at 10 µM. 0.3% of 360,000 active. AID 1224865; in the data active = activity change above about 30%, passing the limit was not always enough;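 note: controls were the assay level and a saturating level of protein; the project sought stronger binding though the title names inhibitors; some compounds called inactive have numbers as strong as hits; positive values seem to mean higher polarization but the record does not say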
E coli growth: E. coli growth inhibition | Escherichia coli growth, OD600, 23 h; stronger effect = lower value | OD600 absorbance (concentration not given with the values) | 0.21% of 330,000 active | AID 1053175;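 active = OD600 absorbance below the run mean of sample wells minus 3.6 SD, in any replicate, cut at about 0.56 in these data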;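 note: stock transfer was 300 nL into about 60 µL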
ALR H2O2 inh: blocks human ALR sulfhydryl oxidase activity; AID 485317; inhibition, % (concentration not given with the values); 3.8% of 290,000 active; purified ALR, DTT oxidation, H2O2 HRP-luminol luminescence;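 active = mean and each replicate at 75% or more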;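 note: stock transfer was 7.5 nL into about 7.5 µL; 0% = neutral wells and 100% = wells with inactivated enzyme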
Target sequence (P55789 whole entry, looked up): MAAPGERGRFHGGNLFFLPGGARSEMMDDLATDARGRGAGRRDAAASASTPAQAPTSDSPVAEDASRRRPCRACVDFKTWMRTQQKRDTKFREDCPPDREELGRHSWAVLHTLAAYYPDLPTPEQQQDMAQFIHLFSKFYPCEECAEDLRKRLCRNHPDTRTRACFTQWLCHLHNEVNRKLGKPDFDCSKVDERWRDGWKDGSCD
FGF22 binding: binders of recombinant human FGF22 by thermal shift | SYPRO orange fluorescence; percent of sucrose octasulfate shift, DMSO zero | AID 651658 | calls only at 9.99 µM | 1.5% of 340,000 active | Q9HCT0;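 active = melting point raised past a set limit in the mean and every replicate; three in four hits are not shown here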
Beta2AR agonist: agonists of human beta-2 adrenergic receptor inducing internalization | P07550 | Am2.2-beta2AR cells, FAP receptor internalization, flow cytometry; reference of the scale not given here | response, % (test concentration not listed) | 0.43% of 340,000 active | AID 504454;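 active = response above a set limit, near 3 SD of response in nonfluorescent compounds, cut at about 42% in these data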;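 note: stock transfer was 100 nL into about 11 µL; a reference agonist was the positive control; negative values mostly stem from fluorescent compounds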
Target sequence (P07550 whole entry, looked up): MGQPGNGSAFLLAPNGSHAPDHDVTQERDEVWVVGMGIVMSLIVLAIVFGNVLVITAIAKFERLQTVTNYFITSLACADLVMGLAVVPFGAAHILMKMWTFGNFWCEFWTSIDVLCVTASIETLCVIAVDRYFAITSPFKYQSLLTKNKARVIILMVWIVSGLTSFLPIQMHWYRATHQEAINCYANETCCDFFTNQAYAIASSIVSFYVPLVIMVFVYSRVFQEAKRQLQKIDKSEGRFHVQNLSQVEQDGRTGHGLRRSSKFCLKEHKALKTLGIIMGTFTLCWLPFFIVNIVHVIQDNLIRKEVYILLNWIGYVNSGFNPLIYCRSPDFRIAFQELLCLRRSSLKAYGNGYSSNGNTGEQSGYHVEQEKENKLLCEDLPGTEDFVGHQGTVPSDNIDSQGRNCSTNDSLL
rRNA inh HTS OD600: recorded beside rRNA inh HTS, whose call it bears; OD600 change, %; measured here: OD600 growth;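 optical density of the mix in the first replicate; 0 = DMSO median and -100 = no signal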
rRNA inh HTS RFP: second read-out of rRNA inh HTS, no call of its own (marks repeat the call); RFP signal change, %; measured here: RFP humanized mutant strains;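 first replicate; 0 = DMSO median and -100 = no signal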
Starred values were filed as active, the others as inactive; i = inactive; / = no result given; & = joins results of further samples. These rows are one share of the data. The share of hits here may be higher or lower than overall.

no. | SMILES | UCH37 DUB inh | rRNA inh HTS | rRNA inh HTS OD600 | rRNA inh HTS RFP | HNF4A DNA FP | E coli growth | ALR H2O2 inh | FGF22 binding | Beta2AR agonist
1 | COc1cccc(Oc2cc(NN3CCCCC3)c([N+](=O)[O-])cc2[N+](=O)[O-])c1OC | 6.2 | 10.0 | 7.4 | -7.8 | 2.1 | 0.695 | 38.6 | i | -0.8
2 | COc1ccc(CCNC(=O)NC23CC4CC(CC(C4)C2)C3)cc1 | 4.1 | -36.5 | -68.2 | -8.3 | 2.4 | 0.701 | 2.4 | i | -2.9
3 | CC(C)CNS(=O)(=O)c1ccc(CCC(=O)N2CCOCC2)cc1 | 3.9 | / | / | / | -1.9 | 0.757 | -15.3 | / | 1.3
4 | Cc1ccc2nc3cc([N+](=O)[O-])cc([N+](=O)[O-])c3cc2c1 | 13.9 | 12.2 | 1.4 | -2.6 | 5.0 | 0.684 | / | i | 58.7*
5 | CCCC(=O)NNC(=O)CCC(=O)Nc1ccccc1Cl | -0.2 | 4.9 | 13.4 | -0.8 | 2.5 | 0.722 | 8.4 | i | -1.2
6 | CC(=O)Nc1ccc(NC(=O)COC(=O)c2ccccn2)cc1 | 4.4 | 20.6 | 23.1 | 3.6 | -2.2 | 0.683 | -8.8 | / | -8.3
7 | COc1ccc(Br)c(Cn2c(C)c(C(=O)NCc3ccc4c(c3)OCCO4)sc2=O)c1 | / | -2.0 | -13.8 | -1.5 | 1.5 | / | / | i | /
8 | Cc1ccc2nc(NC(=O)c3ccc(Br)o3)sc2c1 | -6.7 | 10.9 | 3.8 | -4.0 | 0.4 | 0.692 | -3.8 | i | 0.9
9 | Cc1cc(=O)oc2cc(OCC(=O)NC3(C#N)CCCCC3)c(Cl)cc12 | -142.1 | 0.2 | -1.5 | 2.2 | -0.6 | 0.704 | / | i | 8.5
10 | CCOCCCNC(=O)c1cn(CC)c2ccc(S(=O)(=O)N3CCOCC3)cc2c1=O | 2.9 | -3.3 | 12.7 | -1.5 | -1.5 | 0.665 | -29.3 | i | 2.2
11 | O=C(CC1CC2CCC1C2)N1CCN(S(=O)(=O)c2ccccc2F)CC1 (stereo unspecified) | 3.4 | -11.2 | -8.4 | -0.1 | -1.2 | 0.693 | -17.6 | i | -5.6
12 | CCCOC(=O)Nc1sc2c(c1C(=O)OCC)CCC2 | 0.6 | / | / | / | -0.9 | 0.647 | 46.6 | / | 1.8
13 | O=C(CSc1nc2ccc([N+](=O)[O-])cc2s1)NCC1CCCO1 (stereo unspecified) | 10.6 | -6.7 | 2.9 | 1.2 | 2.0 | 0.665 | / | i | -6.4
14 | O=C(NN=Cc1ccc([N+](=O)[O-])cc1)C1CC1 | 8.6 | 3.4 | 7.2 | -0.1 | 1.0 | 0.664 | / | i | -7.3
15 | Cc1noc(C)c1NC(=O)N(C)C[C@H]1Oc2ccc(NS(=O)(=O)c3c(C)noc3C)cc2C(=O)N([C@H](C)CO)C[C@@H]1C | 2.3 | 5.3&-1.6 | 7.9&6.4 | 0.1&-3.3 | -0.8 | / | 2.3 | i | -0.7
16 | CC(C)c1ccc(-c2c(C#N)c(N)nc(SCC(=O)N3CCCCC3)c2C#N)cc1 | 0.2 | / | / | / | 1.7 | 0.72 | -8.7 | / | -4.3
17 | COc1ccc(C(=O)N(C)Cc2ccc(C)o2)cc1OC1CCN(C(C)C)CC1 | 4.0 | 6.3 | -2.3 | 0.9 | 0.6 | 0.718 | 6.7 | i | 2.5
18 | Cc1nc2ccccc2c(=O)n1NC(=O)c1cccc(Cl)c1 | 3.1 | 5.2 | 10.1 | -1.8 | 3.2 | 0.645 | / | i | -3.7
19 | Cc1ccc(S(=O)(=O)N2CCN(C(=O)N3CCCC3)CC2)cc1 | 4.6 | 5.4 | 6.7 | -1.4 | -4.1 | 0.666 | -4.9 | i | 5.3
20 | O=C1C2Sc3[nH]c(=O)sc3C(c3cc([N+](=O)[O-])ccc3O)C2C(=O)N1c1ccccc1 (stereo unspecified) | 4.4 | 1.9 | 6.5 | -7.6 | 2.1 | 0.707 | 54.3 | i | -0.3
21 | C[C@@H]1O[C@@H](O[C@H]2[C@H](Oc3cc(O)c4c(c3)O[C@H](c3ccc(O)cc3)CC4=O)O[C@H](CO)[C@@H](O)[C@@H]2O)[C@H](O)[C@H](O)[C@H]1O | 1.2 | 4.4 | 7.5 | 1.4 | -1.1 | / | 8.2 | i | 1.0
22 | CCOc1ccc(CCNC(=O)CN2CCN(Cc3ccccc3C)C2=O)cc1OCC | 2.9 | / | / | / | 0.6 | 0.772 | / | / | 8.0
23 | COc1ccc(/C(=N/OC(C)=O)c2nccc3cc(OC)c(OC)cc23)cc1OC | / | -0.2 | -6.7 | 1.4 | 7.2 | / | -16.3 | i | -1.0
24 | CCOC(=O)N1CCN(c2ncnc3c2oc2nc(C(C)C)c4c(c23)CCC4)CC1 | -11.1 | / | / | / | 0.0 | 0.761 | -1.5 | / | -0.3
25 | Cc1nc2ccccc2c(=O)n1CC(=O)N1CCOCC1 | 3.6 | / | / | / | 0.6 | 0.651 | 3.8 | / | 1.0
26 | O=C(NNC(=O)c1csc(-c2cccs2)n1)c1ccc(Cl)cc1 | / | 0.1 | -10.5 | 0.1 | 4.9 | / | / | i | /
27 | Cc1ccc2nc(C)cc(N/N=C/c3cccc(O)c3)c2c1 | / | -27.0 | -33.2 | -4.9 | -2.3 | / | 99.2* | i | -7.7
28 | Cc1cc(C)nc(N/N=C/c2ccc([N+](=O)[O-])o2)n1 | / | -56.5 | -79.3 | -27.5 | -0.7 | / | -74.3 | i | -7.6
29 | O=C(NNC(=O)C1CC(=O)N(c2ccc3c(c2)OCCO3)C1)c1ccc(F)cc1 (stereo unspecified) | 1.5 | 0.1 | 1.2 | -0.5 | -4.7 | 0.571 | 1.3 | i | -4.7
30 | CC(C)(CSc1ccccn1)NS(=O)(=O)c1ccccc1 | -1.1 | / | / | / | 0.0 | 0.719 | -4.0 | / | -5.0

2 records picked at random from the list so far:
no. | SMILES | UCH37 DUB inh | rRNA inh HTS | rRNA inh HTS OD600 | rRNA inh HTS RFP | HNF4A DNA FP | E coli growth | ALR H2O2 inh | FGF22 binding | Beta2AR agonist
26 | O=C(NNC(=O)c1csc(-c2cccs2)n1)c1ccc(Cl)cc1 | / | 0.1 | -10.5 | 0.1 | 4.9 | / | / | i | /
22 | CCOc1ccc(CCNC(=O)CN2CCN(Cc3ccccc3C)C2=O)cc1OCC | 2.9 | / | / | / | 0.6 | 0.772 | / | / | 8.0

More records follow:
no. | SMILES | UCH37 DUB inh | rRNA inh HTS | rRNA inh HTS OD600 | rRNA inh HTS RFP | HNF4A DNA FP | E coli growth | ALR H2O2 inh | FGF22 binding | Beta2AR agonist
31 | C=CCc1ccc(OCC(O)CN2CCCCC2C)c(OC)c1 (stereo unspecified) | 5.9 | / | / | / | 17.0 | 0.752 | -18.8 | / | 0.6
32 | O=C(Cc1ccc(F)cc1)NCCS(=O)(=O)N1CCN(c2ccccc2)CC1 | 6.6 | 4.1 | 9.9 | -2.0 | -0.4 | 0.653 | 0.3 | i | 7.3
33 | Cc1ccc(N(C)C(=O)CCS(=O)(=O)c2ccc3c(c2)oc(=O)n3C)cc1 | 1.7 | 5.3 | -8.1 | -2.6 | 4.8 | 0.661 | 0.4 | i | 0.9
34 | COCCOC(=O)C(C#N)c1nc2ccccc2nc1N1CCCC1 (stereo unspecified) | -13.1 | / | / | / | 2.3 | 0.778 | 69.6 | / | -8.1
35 | Cc1cc(F)ccc1-c1cc(C(=O)NCc2cc(C(F)(F)F)cc(C(F)(F)F)c2)[nH]n1 | / | 7.3 | 14.8 | -2.2 | -1.9 | / | / | i | /
36 | CC(C)CCN1C(=O)c2ccc(C(=O)Nc3cccc(S(N)(=O)=O)c3)cc2C1=O | 0.4 | / | / | / | 0.3 | 0.648 | -3.3 | / | -6.2
37 | Cc1cccc(NC(=O)c2nnn(-c3cccc(C(F)(F)F)c3)c2N)c1 | 3.6 | -6.0 | -3.3 | -0.2 | 0.2 | 0.717 | -7.8 | i | -3.4
38 | Cc1ccc(NCc2nnc(SCC(=O)OC3CCCCC3)o2)c(C)c1 | 2.0 | / | / | / | -0.5 | 0.683 | 98.2* | / | 30.8
39 | CCC1(c2ccccc2)NC(=S)N(c2ccc(C)c(C)c2)N1 (stereo unspecified) | 2.1 | -29.2 | -32.7 | -3.3 | -8.5 | 0.691 | / | i | -4.2
40 | COc1cc2sc(-c3ccccc3OC)c(-c3ccc(OCCN4CCCCC4)cc3)c2cc1OC | / | -28.6 | -31.2 | 13.6 | 1.1 | / | -9.1 | i | 38.8
41 | CNC[C@H]1Oc2c(NC(=O)C3CC3)cccc2C(=O)N([C@H](C)CO)C[C@@H]1C | 3.0 | 5.9&8.6 | 18.8&17.1 | 0.2&8.1 | 4.5 | / | 10.0 | i | -0.7
42 | CC(=O)C1=C(C)NC(=O)NC1c1cc(Br)ccc1OCC#N (stereo unspecified) | 1.3 | / | / | / | 2.7 | 0.652 | / | / | 2.1
43 | CCC(C)NC(=O)CSc1ccc(S(=O)(=O)N(C)C2CCCCC2)cn1 (stereo unspecified) | 4.5 | -0.3 | -9.9 | -1.9 | 0.3 | 0.722 | -3.6 | i | -2.7
44 | Cc1sc2nc(CSc3ccc([N+](=O)[O-])c(C(F)(F)F)c3)[nH]c(=O)c2c1C | -1.2 | / | / | / | 20.9 | 0.708 | / | i | 4.9
45 | CC1CN(C(=O)CSc2nnc(-c3ccncc3)n2-c2ccccc2)CC(C)O1 (stereo unspecified) | -2.0 | / | / | / | 2.2 | 0.682 | 2.1 | / | 1.6
46 | CN(C)c1ccc(C(CC(=O)c2ccccc2)C2CCCCC2=O)cc1 (stereo unspecified) | 4.6 | 16.1 | 7.1 | -2.5 | -0.2 | 0.739 | 98.1* | i | 4.1
47 | COc1ccc(S(=O)(=O)N2CCC3(CC2)CC(=O)c2ccccc2O3)cc1C | 5.4 | 5.3 | 4.9 | 0.3 | -0.1 | 0.716 | 2.9 | / | -2.1
48 | N#Cc1ccc2ccn(CC(=O)NC3CCCCCC3)c2c1 | -2.9 | / | / | / | 0.3 | 0.696 | -10.0 | / | 0.7
49 | CC(=O)N1CCc2cc(S(=O)(=O)CCC(=O)N3CCc4ccccc4C3)ccc21 | 0.2 | / | / | / | 8.5 | 0.713 | 7.4 | / | -0.9
50 | CCc1ccc(NC(=S)N(CCC(C)C)C2CCN(C(C)=O)CC2)cc1 | 4.5 | 13.2 | 19.3 | 1.1 | 5.2 | 0.699 | 2.4 | i | -3.8
51 | Cc1cc(OCC(=O)Nc2c(C)n(C)n(-c3ccccc3)c2=O)ccc1[N+](=O)[O-] | 6.0 | 4.3 | 10.7 | -1.9 | -0.1 | 0.674 | -4.4 | i | 1.7
52 | CCOC(=O)[C@H]1[C@H]2COc3ccc(Br)cc3[C@@H]2N2C(=O)c3ccc(C)cc3NC(=O)[C@@]12C | 4.0 | -8.8 | -13.6 | 0.4 | 4.8 | / | / | i | -7.0
53 | CSCCC(NC(=O)CCN1C(=O)c2ccccc2C1=O)C(=O)O (stereo unspecified) | 2.8 | / | / | / | 0.6 | 0.693 | -13.8 | / | 2.1
54 | Nc1nc(Nc2ccccc2Br)nc(C(F)(F)F)n1 | 2.4 | -5.5 | -2.5 | -2.0 | 1.5 | 0.683 | -1.3 | i | 0.5
55 | CCn1cnc2cc(NCc3ccc(N(C)C)cc3)ccc21 | -1.3 | 6.9 | 8.0 | -4.7 | 2.4 | 0.694 | 98.4* | i | -0.8
56 | O=S(=O)(Cc1ccccc1)N1CCCc2ccccc21 | 3.0 | -0.2 | -2.2 | 1.8 | 3.2 | 0.689 | -7.6 | i | -8.6
